High-throughput results as filed in PubChem.
MT1-MMP act inh – blockers of MT1-MMP proenzyme processing, primary screen, HT1080 RFP-PRO-GFP cells, GFP/RFP fluorescence. Matrix metalloproteinase-14 (Homo sapiens), P50281. GFP/RFP ratio fluorescence, overnight; percent of plate control window, DMSO zero. GFP/RFP ratio change, % at 20 µM. actives 0.061% (n = 360,000);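 active means GFP/RFP ratio change of at least 30% with cell ATP level not reduced by more than half and red fluorescence within 50% of control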; further: strong numbers were not always called active
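Material – HT1080 RFP-PRO-GFP cells · Control set – DMSO wells and RFP-L50D-GFP cells · Incubation – overnight cell settling, then overnight compound exposure, 37 °C, 5% CO2 · Compound dosing – single-point 20 µM compound, 1% DMSO · Read-out – GFP/RFP fluorescence ratio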
PABP FP inh – PABP poly(A) RNA binding inhibitors, primary screen, biochemical, fluorescence polarization, uHTS. Polyadenylate-binding protein 1 (Homo sapiens), P11940. inhibition, % at 35 µM. actives 1% (n = 290,000). AID 2014, 2009;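 active means 50% or more with normal probe brightness, or confirmed in later tests; inconclusive means above 50% with abnormal brightness, or retests that disagree; inactive means below 50% or failed in later tests; about a fifth of its hits are not listed in these tables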;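 further: calls also rest on retests at 20 µM and on dose response follow-up; controls were probe without protein and protein plus probe with vehicle; some compounds called inactive have numbers as strong as hits; many hits fall short of the cut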
Target sequence (P11940 whole entry, looked up): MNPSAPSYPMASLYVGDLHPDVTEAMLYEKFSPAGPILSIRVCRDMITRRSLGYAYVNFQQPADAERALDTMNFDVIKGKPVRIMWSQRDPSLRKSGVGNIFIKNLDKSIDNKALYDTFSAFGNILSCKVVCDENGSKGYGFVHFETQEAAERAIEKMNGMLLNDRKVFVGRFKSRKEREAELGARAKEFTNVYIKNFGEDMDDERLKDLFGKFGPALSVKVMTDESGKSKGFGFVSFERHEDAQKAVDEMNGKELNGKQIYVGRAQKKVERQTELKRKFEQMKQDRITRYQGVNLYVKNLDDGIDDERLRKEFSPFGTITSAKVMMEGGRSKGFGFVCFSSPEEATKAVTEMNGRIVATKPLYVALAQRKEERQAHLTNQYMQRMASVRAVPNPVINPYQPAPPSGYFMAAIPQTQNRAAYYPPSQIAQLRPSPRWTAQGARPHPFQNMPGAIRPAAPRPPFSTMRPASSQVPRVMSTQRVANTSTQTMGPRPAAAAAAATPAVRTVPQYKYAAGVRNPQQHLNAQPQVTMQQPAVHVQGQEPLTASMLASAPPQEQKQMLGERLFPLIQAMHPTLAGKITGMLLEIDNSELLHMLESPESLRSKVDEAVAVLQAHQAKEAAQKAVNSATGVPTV
eIF4H FP inh – human eIF4H binding inhibitors, primary screen, translation initiation inhibitor project, biochemical, uHTS, fluorescence polarization | actives 0.94% (n = 290,000) | Eukaryotic translation initiation factor 4H (Homo sapiens), Q15056 | eIF4H fluorescence polarization binding assay | inhibition, % at 35 µM;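 active means 50% or more with normal probe brightness, or confirmed in later tests; inconclusive means above 50% with abnormal brightness, or retests that disagree; inactive means below 50% or failed in later tests; about a fifth of its hits are not listed in these tables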;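 further: calls also rest on retests at 20 µM and on dose response follow-up; 0% = protein and probe with vehicle and 100% = probe without protein; strong numbers were not always called active; many hits fall short of the cut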
Yeast UUG start – modulators of yeast start codon fidelity, primary screen, whole organism, S. cerevisiae, single point, plate reader; S. cerevisiae UUG-firefly luciferase reporter, luminescence/redox ratio; activity score, % at 18.7 µM; actives 0.13% (n = 350,000);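 active means replicate mean at a twofold rise or more, about +100% in these data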;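 further: firefly luciferase made from a UUG start codon reports start codon fidelity; reporter light over untreated wells divided by growth signal over untreated wells; some hits fall short of that in this replicate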
CSC inhib – cancer stem cell viability inhibitors, primary screen, luminescence; AID 2717, 2010; actives 1.1% (n = 300,000); inhibition, % at 7.5 µM; cancer stem cell-like cells viability;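 active means mean at 75% or more and at least half the replicates too; inconclusive means mean and replicates disagree; tested in HMLE shEcad cells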;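 further: 0% = median of negative and 100% = median of positive control wells; the first replicate is given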
Rce1 inhib – yeast Rce1p protease inhibitors, primary screen, biochemical, fluorescence, cell-free homogeneous. actives 0.27% (n = 290,000). yeast membranes, quenched prenylated peptide cleavage fluorescence. CAAX prenyl protease 2 (Saccharomyces cerevisiae (strain ATCC 204508 / S288c)), Q03530. calls only;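 active means fall in fluorescence gain of 50% or more versus controls, with final raw signal at or below 3038400; inconclusive means same 50% fall but final raw signal above 3038400; inactive means fall in fluorescence gain under 50%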;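 further: plate controls were neutral control wells for no effect and wells lacking membranes for full effect; tested at 10 µM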
Env fusion inh – inhibitors of HIV-1 Env-driven cell-cell fusion, primary screen, HeLa-JRFL effector, CEM21 target cells, luciferase; actives 1.1% (n = 360,000); AID 651610, 2012; inhibition, % at 12.3 µM;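 active means mean replicate inhibition score of at least 50 and every replicate individually at or above 50; inconclusive means only one of the two criteria met; inactive means mean below 50 and not all replicates reaching 50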;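 further: 0% = plate neutral controls and 100% = maraviroc near 300 nM; one replicate is shown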
MT1-MMP act inh RFP – also measured in MT1-MMP act inh; calls as there; RFP signal change, %; measured here: RFP expression control read;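 0 = vehicle wells; hits needed this value within 50% of zero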
* marks the source's active call; other numbers are inactive results.

Sample of the layout (4 entries):
For C=CCNC(=O)c1ccc2c(=O)n(Cc3ccccc3OC)c(=S)[nH]c2c1 the results were MT1-MMP act inh 1, PABP FP inh 1, eIF4H FP inh 3, Yeast UUG start -10, Rce1 inhib inactive, Env fusion inh 17 and MT1-MMP act inh RFP -1.
Screening CCCOc1ccc(/C=N/Nc2cccc([N+](=O)[O-])c2)c(O)c1 returned MT1-MMP act inh -11, PABP FP inh 1, eIF4H FP inh 11, Yeast UUG start 6, CSC inhib 113*, Rce1 inhib inactive, Env fusion inh -6 and MT1-MMP act inh RFP -27.
For CCOC(=O)c1cnn(-c2ccc([N+](=O)[O-])cc2)c1N the results were MT1-MMP act inh 6, PABP FP inh 4, eIF4H FP inh -9, Yeast UUG start -19, CSC inhib 2, Rce1 inhib inactive, Env fusion inh 0 and MT1-MMP act inh RFP 0.
Screening O=c1oc2ccccc2c(Nc2cccc3ccccc23)c1[N+](=O)[O-] returned MT1-MMP act inh 5, PABP FP inh 4, eIF4H FP inh 15, Yeast UUG start 1, CSC inhib 22, Rce1 inhib inactive and MT1-MMP act inh RFP 5.

This part in full (from the top)
For C=CCNC(=O)c1ccc2c(=O)n(Cc3ccccc3OC)c(=S)[nH]c2c1 the results were MT1-MMP act inh 1, PABP FP inh 1, eIF4H FP inh 3, Yeast UUG start -10, Rce1 inhib inactive, Env fusion inh 17 and MT1-MMP act inh RFP -1.
Screening CCCOc1ccc(/C=N/Nc2cccc([N+](=O)[O-])c2)c(O)c1 returned MT1-MMP act inh -11, PABP FP inh 1, eIF4H FP inh 11, Yeast UUG start 6, CSC inhib 113*, Rce1 inhib inactive, Env fusion inh -6 and MT1-MMP act inh RFP -27.
For CCOC(=O)c1cnn(-c2ccc([N+](=O)[O-])cc2)c1N the results were MT1-MMP act inh 6, PABP FP inh 4, eIF4H FP inh -9, Yeast UUG start -19, CSC inhib 2, Rce1 inhib inactive, Env fusion inh 0 and MT1-MMP act inh RFP 0.
Screening O=c1oc2ccccc2c(Nc2cccc3ccccc23)c1[N+](=O)[O-] returned MT1-MMP act inh 5, PABP FP inh 4, eIF4H FP inh 15, Yeast UUG start 1, CSC inhib 22, Rce1 inhib inactive and MT1-MMP act inh RFP 5.
For CC(=O)Nc1ccc(C(=O)OCC(=O)N2CCN(C(=O)c3ccco3)CC2)cc1 the results were MT1-MMP act inh 4, Yeast UUG start 8, CSC inhib 9, Env fusion inh -25 and MT1-MMP act inh RFP -4.
`CC(=O)N1c2ccc(S(=O)(=O)NCC3CCC(C(=O)NC4CCC(C)CC4)CC3)cc2CC1C` (stereo unspecified) gave MT1-MMP act inh -1, PABP FP inh 0, eIF4H FP inh 8, Yeast UUG start -3, CSC inhib -9, Rce1 inhib inactive, Env fusion inh 4 and MT1-MMP act inh RFP -16.
For Cc1ccc(-c2csc3ncn(CC(=O)NCC(c4ccco4)N4CCCC4)c(=O)c23)cc1 (stereo unspecified) the results were MT1-MMP act inh -5, Yeast UUG start 2, CSC inhib -13 and MT1-MMP act inh RFP 0.
For CN(CCc1ccccn1)C(=O)c1cc(COc2ccc(F)cc2F)on1 the results were MT1-MMP act inh 1, PABP FP inh 1, eIF4H FP inh -11, Yeast UUG start -8, CSC inhib -6, Rce1 inhib inactive and MT1-MMP act inh RFP -1.
For O=C(Nc1ccccc1-c1ccccc1NC(=O)c1ccco1)c1ccco1 the results were MT1-MMP act inh -2, PABP FP inh -9, eIF4H FP inh 9, CSC inhib -7, Rce1 inhib inactive and MT1-MMP act inh RFP 2.
Screening CCOC(=O)c1sc(NC(=O)c2cccc(S(=O)(=O)N3CCN(C)CC3)c2)cc1C returned MT1-MMP act inh 1, PABP FP inh 4, eIF4H FP inh -9, Yeast UUG start -12, CSC inhib 6, Rce1 inhib inactive and MT1-MMP act inh RFP 4.
Screening O=C(O)c1cc([N+](=O)[O-])c(NCCC2=CCCCC2)c([N+](=O)[O-])c1 returned MT1-MMP act inh 4, PABP FP inh -4, eIF4H FP inh 12, CSC inhib -10, Rce1 inhib inactive, Env fusion inh -12 and MT1-MMP act inh RFP 5.
For CCCNC(=O)CCCN1C(=O)c2ccccc2Sc2ncccc21 the results were MT1-MMP act inh 5, PABP FP inh 7, eIF4H FP inh -5, Yeast UUG start 1, CSC inhib -3, Rce1 inhib inactive, Env fusion inh -8 and MT1-MMP act inh RFP 5.
Screening Cc1cnc(C(=O)OCC(=O)Nc2cc(S(=O)(=O)N3CCCCC3)ccc2Cl)cn1 returned MT1-MMP act inh 1, PABP FP inh -10, eIF4H FP inh -6, CSC inhib 2, Rce1 inhib inactive, Env fusion inh 4 and MT1-MMP act inh RFP 2.
Screening CCC(C(=O)NC1CCCC1)N(C(=O)Cn1nnc(-c2ccc(C)o2)n1)c1ccc(F)cc1 (stereo unspecified) returned MT1-MMP act inh 0, PABP FP inh 8, eIF4H FP inh -6, Yeast UUG start -3, Rce1 inhib inactive, Env fusion inh 8 and MT1-MMP act inh RFP 5.
`CCCCN1CC[C@H]2C=CC[C@@H](C(=O)N3CCN(c4ccccc4)CC3)[C@H]2C1=O` gave MT1-MMP act inh 4, Yeast UUG start -17, CSC inhib 3, Rce1 inhib inactive, Env fusion inh -20 and MT1-MMP act inh RFP -2.
Cc1nc2c(Br)cc(Br)cc2cc1O was read as MT1-MMP act inh -5, PABP FP inh 3, eIF4H FP inh -6, Yeast UUG start 6, CSC inhib -15, Rce1 inhib inactive, Env fusion inh -395 and MT1-MMP act inh RFP -9.
Cc1n[nH]c(=O)nc1N1CCN(c2ccccc2)CC1 was read as MT1-MMP act inh -1, PABP FP inh -6, eIF4H FP inh -2, Yeast UUG start -13, Rce1 inhib inactive and MT1-MMP act inh RFP 1.
`CCOc1ccc(NC(=O)c2ccc(NS(=O)(=O)c3cccs3)cc2)cc1` gave MT1-MMP act inh -2, PABP FP inh 6, eIF4H FP inh -13, Yeast UUG start -3, CSC inhib 11, Env fusion inh -5 and MT1-MMP act inh RFP -5.
For Cc1ccc(NC(=O)C(C)SCc2nc3sc(C)c(C)c3c(=O)[nH]2)nc1 (stereo unspecified) the results were MT1-MMP act inh -11, CSC inhib 11, Rce1 inhib inactive, Env fusion inh 8 and MT1-MMP act inh RFP -2.
For Nn1c(C2COc3ccccc3O2)n[nH]c1=S (stereo unspecified) the results were MT1-MMP act inh -1, PABP FP inh 7, eIF4H FP inh 0, CSC inhib -6, Rce1 inhib inactive, Env fusion inh 6 and MT1-MMP act inh RFP 2.
`N#Cc1ccc(NC(=O)Nc2ccc(Oc3ccc(NC(=O)Nc4ccc(C#N)cc4)cc3)cc2)cc1` gave MT1-MMP act inh 0, PABP FP inh 48, eIF4H FP inh -14, Yeast UUG start -16, CSC inhib 44, Rce1 inhib inactive, Env fusion inh 64* and MT1-MMP act inh RFP -24.
Screening Cc1ccc(-c2[nH]ncc2/C=N/n2c(C)nc3ccccc3c2=O)cc1 returned MT1-MMP act inh -5, PABP FP inh -3, eIF4H FP inh -4, Yeast UUG start -6, CSC inhib 0, Rce1 inhib inactive, Env fusion inh -2 and MT1-MMP act inh RFP 0.
Screening Oc1ccc2ccccc2c1C=Nc1cc(C(F)(F)F)ccc1N1CCCC1 returned MT1-MMP act inh 5, PABP FP inh -8, eIF4H FP inh 2, CSC inhib -9, Rce1 inhib inactive and MT1-MMP act inh RFP 4.
CCc1ccc(CN(C)C(=O)C2CCC(=O)N(Cc3cccc(OC)c3)C2)nc1 (stereo unspecified) was read as MT1-MMP act inh -7, PABP FP inh -10, eIF4H FP inh -2, Yeast UUG start -19, CSC inhib 1, Rce1 inhib inactive, Env fusion inh 2 and MT1-MMP act inh RFP -2.
`c1ccc2[nH]c(NCCCN3CCOCC3)nc2c1` gave MT1-MMP act inh 6, PABP FP inh 4, eIF4H FP inh -2, Yeast UUG start -13, CSC inhib -1, Rce1 inhib inactive, Env fusion inh -7 and MT1-MMP act inh RFP 2.
CCn1c2ccccc2c2cc(NC(=O)COc3ccc(OC)cc3)ccc21 was read as MT1-MMP act inh -4, PABP FP inh 6, eIF4H FP inh 5, Yeast UUG start -21, CSC inhib -2, Rce1 inhib inactive, Env fusion inh -94 and MT1-MMP act inh RFP -3.
Screening FC(F)Oc1ccc(-n2cc(-c3ccc(Cl)cc3)[n+]3c2CCCCC3)cc1 returned MT1-MMP act inh 0, PABP FP inh 0, eIF4H FP inh -18, CSC inhib -6, Rce1 inhib inactive, Env fusion inh -5 and MT1-MMP act inh RFP -1.
`COc1ccccc1OCc1ccc(C(=O)NCC2CCCO2)o1` (stereo unspecified) gave MT1-MMP act inh 1, PABP FP inh 9, eIF4H FP inh 12, Yeast UUG start -5, CSC inhib -4, Rce1 inhib inactive, Env fusion inh -1 and MT1-MMP act inh RFP 1.
For COc1ccccc1-c1sc2ccccc2c1-c1ccc(OCCN2CCOCC2)cc1 the results were MT1-MMP act inh -2, Yeast UUG start -14, Env fusion inh -9 and MT1-MMP act inh RFP -5.
For O=C(N/N=C/c1cc2c(cc1[N+](=O)[O-])OCO2)c1ccc2c(c1)OCO2 the results were MT1-MMP act inh 2, PABP FP inh 8, eIF4H FP inh 14, CSC inhib -12, Rce1 inhib inactive, Env fusion inh 4 and MT1-MMP act inh RFP 1.
`CCOC(=O)C1(COCc2ccccc2)CCCCC1=O` (stereo unspecified) gave MT1-MMP act inh -8, Yeast UUG start -1, Env fusion inh -3 and MT1-MMP act inh RFP -3.
`COc1ccc(C(C)=O)cc1Cn1c(C)c(C(=O)NCc2ccc(C(F)(F)F)cc2)sc1=O` gave MT1-MMP act inh -5, Yeast UUG start -14, Env fusion inh -11 and MT1-MMP act inh RFP -4.
CC(C)CNC(=O)CCCc1c[nH]c2ccccc12 was read as MT1-MMP act inh 5, PABP FP inh -4, eIF4H FP inh -7, Rce1 inhib inactive, Env fusion inh -8 and MT1-MMP act inh RFP 3.
`CCCCNC(=S)Nc1ccc(SC(F)F)cc1` gave MT1-MMP act inh 8, PABP FP inh inconclusive, eIF4H FP inh -1, Yeast UUG start -31, CSC inhib 6, Rce1 inhib inactive, Env fusion inh -5 and MT1-MMP act inh RFP -11.
For Cc1ccc(SCc2cc(=O)[nH]c(Nc3nc(C)c4ccc(C)cc4n3)n2)cc1 the results were MT1-MMP act inh -2, PABP FP inh 12, eIF4H FP inh -1, Rce1 inhib inactive, Env fusion inh 2 and MT1-MMP act inh RFP -4.
For Cc1ccn2c(=O)c(NC(=O)c3ccc(Br)o3)c(C)nc2c1 the results were MT1-MMP act inh 0, Yeast UUG start 17, Rce1 inhib inactive, Env fusion inh 15 and MT1-MMP act inh RFP 4.
Screening CCOC(=O)C1CCCN(C(=O)c2ccc3c(=O)n(Cc4ccccc4OC)c(=S)[nH]c3c2)C1 (stereo unspecified) returned MT1-MMP act inh -1, PABP FP inh -5, eIF4H FP inh -4, Yeast UUG start -15, CSC inhib 31, Rce1 inhib inactive, Env fusion inh -17 and MT1-MMP act inh RFP 0.
COc1ccc(N(C(C)C(=O)Nc2cccnc2)S(C)(=O)=O)cc1 (stereo unspecified) was read as MT1-MMP act inh 0, PABP FP inh -1, eIF4H FP inh 4, CSC inhib -11, Rce1 inhib inactive, Env fusion inh 10 and MT1-MMP act inh RFP 4.
